High-throughput results as filed in PubChem.
FGF22 binding – binders of human FGF22 protein, primary screen, FGF22 synaptogenesis inhibitor project, biophysical, thermal shift, single point; calls only at 9.99 µM; hit rate 1.5% among 340,000; recombinant FGF22 thermal shift, SYPRO orange fluorescence; percent of sucrose octasulfate shift, DMSO zero;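 active = melting point raised past a set limit in the mean and every replicate; three in four hits are not shown here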
Target sequence (Q9HCT0 whole entry, looked up): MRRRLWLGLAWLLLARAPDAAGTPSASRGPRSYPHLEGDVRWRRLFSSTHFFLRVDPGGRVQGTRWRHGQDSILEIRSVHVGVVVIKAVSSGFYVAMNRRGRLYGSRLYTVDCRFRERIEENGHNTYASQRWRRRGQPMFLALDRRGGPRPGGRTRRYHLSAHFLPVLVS
Calls only; i = inactive.

FGF22 binding	canonical_smiles
i	COc1ccc(S(=O)(=O)N(C)C[C@H]2Oc3ccc(NS(=O)(=O)c4c(C)noc4C)cc3CC(=O)N([C@H](C)CO)C[C@H]2C)cc1
i	CC(C)NC(=O)N(C)C[C@H]1Oc2cc(C#CCN(C)C)ccc2S(=O)(=O)N([C@H](C)CO)C[C@H]1C
i	C[C@H]1CN([C@@H](C)CO)C(=O)c2ccccc2-c2ccccc2CO[C@@H]1CN(C)C(=O)Nc1ccnc(N2CCOCC2)c1
i	O=C(Nc1cccc(F)c1)N[C@H]1CC[C@@H](CCn2cc(Cc3ccccc3)nn2)O[C@@H]1CO
i	CO[C@@H]1CN(C)C(=O)c2ccc(NC(=O)Nc3ccc(F)cc3)cc2OC[C@H](C)NC[C@@H]1C
i	COCC(=O)Nc1ccc2c(c1)C(=O)N(C)C[C@H](OC)[C@@H](C)CN(Cc1ccccc1OC)[C@H](C)CO2
i	C[C@@H]1CN([C@H](C)CO)C(=O)Cc2cc(NC(=O)CCC(F)(F)F)ccc2O[C@H]1CN(C)CC1CC1
i	Cc1ccc(S(=O)(=O)Nc2ccc3c(c2)C(=O)N([C@@H](C)CO)C[C@@H](C)[C@@H](CN(C)C(=O)Nc2ccc(C(F)(F)F)cc2)OCCCC[C@H](C)O3)cc1
i	CC(=O)N(C)C[C@@H]1Oc2ncc(C#C[C@H](C)O)cc2C(=O)N([C@@H](C)CO)C[C@H]1C
i	C[C@@H]1CN([C@@H](C)CO)S(=O)(=O)c2ccc(C#Cc3ccccc3)cc2O[C@H]1CN(C)C(=O)Nc1ccc2c(c1)OCO2
i	CCCNC(=O)N(C)C[C@H]1Oc2cc(C3=CCCCC3)ccc2S(=O)(=O)N([C@H](C)CO)C[C@@H]1C
i	C[C@H]1CN([C@@H](C)CO)C(=O)c2cc(NC(=O)Cc3cn(C)c4ccccc34)ccc2O[C@H]1CN(C)C(=O)Nc1ccc2c(c1)OCO2
i	C[C@H]1CN([C@@H](C)CO)C(=O)c2cc(NC(=O)Cn3cnnn3)ccc2O[C@@H]1CN(C)Cc1ccc(Cl)c(Cl)c1
i	CNC(=O)C[C@@H]1CC[C@@H]2[C@@H](COc3ccc(NC(=O)NC(C)C)cc3C(=O)N2C)O1
i	CCCC(=O)N1C[C@@H]2[C@H](c3ccccc31)[C@H](CO)N2Cc1cocn1
i	Cc1noc(C)c1NC(=O)Nc1ccc2c(c1)CC(=O)N([C@@H](C)CO)C[C@@H](C)[C@H](CN(C)Cc1ccc(C(=O)Nc3ccccc3N)cc1)O2
i	Cc1cc(C(=O)Nc2cccc3c2O[C@@H](CN(C)S(=O)(=O)c2ccc(Cl)cc2)[C@H](C)CN([C@H](C)CO)C3=O)n(C)n1
i	CCCC(=O)Nc1ccc2c(c1)OC[C@@H](C)N(C(=O)Cc1ccccn1)C[C@@H](C)[C@H](OC)CN(C)C2=O
i	O=C(NCC1CC1)[C@H]1[C@H](CO)[C@H]2Cn3c(ccc(-c4ccncc4)c3=O)[C@@H]1N2CC1CC1
i	O=C(C[C@@H]1CC[C@H]2[C@@H](COC[C@@H](O)CN2Cc2ccncc2)O1)NCc1ccncc1

Brought forward from above: 5 entries, then new ones.
FGF22 binding	canonical_smiles
i	Cc1noc(C)c1NC(=O)Nc1ccc2c(c1)CC(=O)N([C@@H](C)CO)C[C@@H](C)[C@H](CN(C)Cc1ccc(C(=O)Nc3ccccc3N)cc1)O2
i	Cc1cc(C(=O)Nc2cccc3c2O[C@@H](CN(C)S(=O)(=O)c2ccc(Cl)cc2)[C@H](C)CN([C@H](C)CO)C3=O)n(C)n1
i	CCCC(=O)Nc1ccc2c(c1)OC[C@@H](C)N(C(=O)Cc1ccccn1)C[C@@H](C)[C@H](OC)CN(C)C2=O
i	O=C(NCC1CC1)[C@H]1[C@H](CO)[C@H]2Cn3c(ccc(-c4ccncc4)c3=O)[C@@H]1N2CC1CC1
i	O=C(C[C@@H]1CC[C@H]2[C@@H](COC[C@@H](O)CN2Cc2ccncc2)O1)NCc1ccncc1
i	C[C@@H]1CN([C@@H](C)CO)C(=O)Cc2cc(NC(=O)C3CC3)ccc2O[C@@H]1CN(C)C(=O)Nc1ccc(F)cc1
i	C[C@H]1CN([C@@H](C)CO)C(=O)c2cccc(NC(=O)c3cnccn3)c2O[C@H]1CN(C)Cc1ccc(Cl)c(Cl)c1
i	CCCNC(=O)N1[C@@H](CO)[C@@H]2c3ccccc3N(C(=O)Nc3ccc(F)cc3)C[C@@H]21
i	CN(C)C(=O)c1cccc(-c2cccc(-c3nc(C(=O)N4CCCCC4)cc4c3[C@@H](CCO)N([S@](=O)C(C)(C)C)C4)c2)c1
i	CCCNC(=O)C[C@@H]1CC[C@@H]2[C@@H](COc3ccc(NC(=O)c4ccc(OC)cc4)cc3C(=O)N2C)O1
i	CCCN(C)C[C@H]1OCCCC[C@H](C)Oc2ccc(NS(=O)(=O)c3cccs3)cc2C(=O)N([C@H](C)CO)C[C@H]1C
i	CN1C(=O)c2cc(NC(=O)c3ccc4c(c3)OCO4)ccc2OC[C@@H]2O[C@@H](CC(=O)O)CC[C@H]21
i	C[C@H](CO)N1C[C@H](C)[C@H](CN(C)Cc2cccc(C(=O)O)c2)Oc2cc(C3=CCCCC3)ccc2S1(=O)=O
i	C[C@@H]1CCCCO[C@@H](CN(C)Cc2ccc(C(F)(F)F)cc2)[C@H](C)CN([C@H](C)CO)C(=O)c2cc(NC(=O)c3ccncc3)ccc2O1
i	CNC(=O)C[C@@H]1CC[C@H]2[C@@H](COc3ccc(NC(=O)C4CC4)cc3C(=O)N2C)O1
i	N#Cc1cccc(-c2ccc([C@H]3[C@H]4CN(C(=O)Nc5cccc(F)c5)CCCCN4[C@H]3CO)cc2)c1
i	COc1ccc(CN(C)C[C@@H]2OCCCC[C@H](C)Oc3ccc(NC(=O)Nc4ccc(OC)cc4)cc3C(=O)N([C@@H](C)CO)C[C@H]2C)cc1
i	C[C@@H]1CN([C@@H](C)CO)S(=O)(=O)c2ccc(C#Cc3ccccn3)cc2O[C@H]1CN(C)Cc1ccccc1
i	COc1cccc(NC(=O)C[C@H]2CC[C@H]3[C@H](COc4ccc(NC(=O)C5CC5)cc4C(=O)N3C)O2)c1
i	O=C(C[C@@H]1C[C@@H]2c3cc(NC(=O)c4cccnc4)ccc3O[C@@H]2[C@H](CO)O1)NCc1cccc(F)c1
i	CN(C)CC(=O)Nc1ccc2c(c1)[C@H]1C[C@H](CC(=O)N3CCN(C)CC3)O[C@H](CO)[C@H]1O2
i	CCc1cc2c(nc1CC)CCCN2Cc1ccccc1C(F)(F)F
i	CN1C(=O)c2cc(NC(=O)C3CC3)ccc2OC[C@H]2O[C@H](CC(=O)NCc3cccc(F)c3)CC[C@H]21
i	C[C@H]1CN([C@@H](C)CO)C(=O)Cc2cc(NC(=O)Nc3ccc(F)cc3)ccc2O[C@H]1CN(C)Cc1ccc(Oc2ccccc2)cc1
i	COc1ccc2c3c(n(C)c2c1)[C@H](CO)N(Cc1cccc(F)c1)CC31CCN(C)CC1

Another view of 3 compounds above.
| smiles | FGF22 binding |
| --- | --- |
| C[C@H]1CN([C@@H](C)CO)C(=O)c2cccc(NC(=O)c3cnccn3)c2O[C@H]1CN(C)Cc1ccc(Cl)c(Cl)c1 | i |
| CCCNC(=O)N1[C@@H](CO)[C@@H]2c3ccccc3N(C(=O)Nc3ccc(F)cc3)C[C@@H]21 | i |
| CN(C)C(=O)c1cccc(-c2cccc(-c3nc(C(=O)N4CCCCC4)cc4c3[C@@H](CCO)N([S@](=O)C(C)(C)C)C4)c2)c1 | i |

(next part)
FGF22 binding	canonical_smiles
i	C[C@@H]1CN([C@@H](C)CO)C(=O)Cc2cc(NC(=O)Nc3ccc4c(c3)OCO4)ccc2O[C@@H]1CN(C)Cc1ccc(-c2ccccc2)cc1
i	C[C@@H]1CCCCO[C@H](CN(C)C(=O)C2CCCCC2)[C@H](C)CN([C@@H](C)CO)C(=O)c2cc(NC(=O)Nc3ccccc3)ccc2O1
i	O=C(C1CC1)N1CC2(C1)[C@H](c1ccccc1)[C@H](CO)N2CCC(F)(F)F
i	CNC[C@@H]1Oc2ncc(C#CC3(O)CCCC3)cc2C(=O)N([C@H](C)CO)C[C@@H]1C
i	COCC(=O)Nc1ccc2c(c1)[C@@H]1C[C@H](CC(=O)N3CCOCC3)O[C@H](CO)[C@@H]1O2
i	COc1ccc(NC(=O)N2CCCCN3[C@H](CO)[C@H](c4ccc(C#CCC(C)C)cc4)[C@@H]3C2)cc1
i	O=C(C[C@H]1CC[C@@H](NS(=O)(=O)c2ccc(F)cc2)[C@@H](CO)O1)NC1CCC1
i	CO[C@H]1CN(C)C(=O)c2ccc(NS(=O)(=O)CC(F)(F)F)cc2OC[C@H](C)N(C)C[C@H]1C
i	COc1cccc(CN2CC3(CN(S(C)(=O)=O)C3)c3c(n(C)c4cc(OC)ccc34)[C@@H]2CO)c1
i	C[C@@H]1CN([C@H](C)CO)C(=O)c2cccc(NC(=O)CCCCCC(=O)Nc3ccccc3N)c2O[C@@H]1CN(C)CC1CC1
i	COCC(=O)N1CC2(C1)[C@@H](c1ccc(-c3ccccc3)cc1)[C@H](CO)N2C(C)=O
i	O=C(C[C@H]1CC[C@H]2NC[C@@H](O)COC[C@@H]2O1)Nc1ccccc1
i	C[C@@H]1CN([C@H](C)CO)C(=O)c2cccc(NC(=O)C3CCCCC3)c2O[C@@H]1CN(C)CC1CCCCC1
i	CN(C)C(=O)C[C@@H]1CC[C@@H]2[C@H](COC[C@H](O)CN2C(=O)c2ccncc2)O1
i	C[C@H]1CN([C@@H](C)CO)S(=O)(=O)c2ccc(C3=CCCCC3)cc2O[C@H]1CN(C)C(=O)Nc1ccc2c(c1)OCO2
i	CNC[C@@H]1Oc2ccc(NC(=O)Cc3cn(C)c4ccccc34)cc2CC(=O)N([C@@H](C)CO)C[C@@H]1C
i	C[C@@H]1CCCCO[C@@H](CN(C)C(=O)Nc2ccc(F)cc2)[C@@H](C)CN([C@@H](C)CO)C(=O)c2cc(N(C)C)ccc2O1
i	Cc1ccc(S(=O)(=O)N(C)C[C@@H]2Oc3ccc(NC(=O)c4ccncc4)cc3CC(=O)N([C@@H](C)CO)C[C@@H]2C)cc1
i	C[C@@H]1CN([C@H](C)CO)C(=O)Cc2cc(NC(=O)Nc3cccc4ccccc34)ccc2O[C@@H]1CN(C)S(=O)(=O)c1ccc(F)cc1
i	CC(C)NC(=O)N1[C@H](CO)[C@@H](c2ccccc2)C12CN(C(=O)CN(C)C)C2

Part of the list above in order of heavy-atom count, falling.
FGF22 binding	canonical_smiles
i	COc1ccc(CN(C)C[C@@H]2OCCCC[C@H](C)Oc3ccc(NC(=O)Nc4ccc(OC)cc4)cc3C(=O)N([C@@H](C)CO)C[C@H]2C)cc1
i	C[C@@H]1CN([C@@H](C)CO)S(=O)(=O)c2ccc(C#Cc3ccccn3)cc2O[C@H]1CN(C)Cc1ccccc1
i	COCC(=O)Nc1ccc2c(c1)[C@@H]1C[C@H](CC(=O)N3CCOCC3)O[C@H](CO)[C@@H]1O2

Next results
FGF22 binding	canonical_smiles
i	CO[C@H]1CN(C)C(=O)c2cc(NC(=O)c3ccccc3F)ccc2OC[C@H](C)NC[C@@H]1C
i	N#C[C@H]1[C@@H](c2ccc(-c3ccccc3F)cc2)[C@@H](CO)N1C(=O)Cc1ccccc1
i	O=C(NC[C@H]1N[C@H](CO)[C@@H]1c1ccccc1)c1ccccc1F
i	COCC(=O)Nc1ccc2c(c1)[C@@H]1C[C@@H](CC(=O)NC3CCCC3)O[C@H](CO)[C@@H]1O2
i	N#Cc1cccc(-c2ccc3c(c2)[C@H]2[C@H](CCN2S(=O)(=O)c2cccc(F)c2)[C@@H](CO)N3)c1
i	C[C@H](O)C#Cc1ccc([C@H]2[C@@H](CO)N3CCCCN(C(=O)c4ccc5c(c4)OCO5)C[C@@H]23)cc1
i	CCS(=O)(=O)NCC[C@H]1CC[C@H](NC(=O)C2CCCC2)[C@@H](CO)O1
i	O=C(C1CCC1)N1CC(=O)N2[C@H](C1)[C@@H](c1ccc(Br)cc1)[C@@H]2CO
i	Cc1noc(C)c1S(=O)(=O)Nc1ccc2c(c1)C(=O)N([C@@H](C)CO)C[C@H](C)[C@H](CN(C)Cc1ccc3c(c1)OCO3)OCCCC[C@@H](C)O2
i	O=C(N[C@H]1CC[C@H](CCNC(=O)c2ccccc2F)O[C@@H]1CO)c1cnccn1
i	CCNC(=O)C[C@H]1CC[C@H]2[C@H](COc3ccc(NC(=O)c4cscn4)cc3C(=O)N2C)O1
i	C[C@H](CO)N1C[C@H](C)[C@@H](CN(C)S(C)(=O)=O)Oc2ccc(NS(=O)(=O)c3cccs3)cc2C1=O
i	Cc1cc(C)cc(NC(=O)Nc2ccc3c(c2)C(=O)N(C)[C@@H]2CC[C@@H](CC(=O)O)O[C@@H]2CO3)c1
i	COc1ccc(NC(=O)N2CCCCN3[C@H](CO)[C@@H](c4ccc(C5=CCCCC5)cc4)[C@H]3C2)cc1
i	CCCNC(=O)Nc1ccc2c(c1)OC[C@@H](C)N(Cc1ccncc1)C[C@@H](C)[C@H](OC)CN(C)C2=O
i	CCCC(=O)Nc1ccc2c(c1)C(=O)N(C)C[C@H](OC)[C@H](C)CN(Cc1ccccc1F)[C@H](C)CO2
i	CO[C@@H]1CN(C)C(=O)c2ccc(NC(=O)C3CC3)cc2OC[C@H](C)N(C(=O)C2CCOCC2)C[C@H]1C
i	O=C(C1CC1)N1C[C@@H]2[C@H](c3ccccc31)[C@@H](CO)N2C(=O)c1ccccc1
i	C[C@@H]1CCCCO[C@H](CN(C)C(=O)CCCN(C)C)[C@@H](C)CN([C@H](C)CO)C(=O)c2cc(NS(=O)(=O)c3cccs3)ccc2O1
i	CNC[C@H]1OCCCC[C@H](C)Oc2ccc(NC(=O)NC3CCCCC3)cc2C(=O)N([C@H](C)CO)C[C@H]1C
i	Cc1cc(C(=O)Nc2ccc3c(c2)C(=O)N(C)[C@H]2CC[C@H](CC(=O)N[C@H](C)c4ccccc4)O[C@H]2CO3)no1
i	COc1ccccc1-c1ccc([C@@H]2[C@@H](C#N)N[C@@H]2CO)cc1
i	C[C@@H]1CN([C@@H](C)CO)C(=O)c2cc(NC(=O)Nc3ccccc3)ccc2O[C@@H](C)CCCCO[C@@H]1CN(C)C(=O)NC1CCCCC1
i	O=C(C[C@@H]1CC[C@@H]2[C@H](COC[C@@H](O)CN2Cc2ccc(C(F)(F)F)cc2)O1)N1CCc2ccccc2C1
i	CC(C)NC(=O)Nc1cccc2c1O[C@H](CN(C)C)[C@H](C)CN([C@H](C)CO)C2=O
i	O=C(O)Cn1cnc2c(NCc3ccccc3)ncnc21

A portion of the library; count on the stated rates, not on these rows.
